DUX4 inh = inhibitors of DUX4-driven ZSCAN4 reporter expression, primary screen, 293T cells, Gaussia and Italica luciferase. 293T-iDUX4 ZSCAN4-Gaussia luciferase reporter, 24 h; hits give low values. 37,000 compounds, 0.8% hits. activity change, negative = inhibition, % (no concentration beside the values);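 active = -10% or lower and over 25 points stronger than a control reporter; inconclusive = -10% or lower with a smaller gap; inactive = above -10%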;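 note: 0% = median of neutral control wells and -100% = median of positive control wells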
DUX4 inh difference = second read-out of DUX4 inh, no call of its own (marks repeat the call); Gaussia minus Italica difference, %; measured here: selective DUX4 reporter inhibition;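 worked out from the two reporters; negative = selective loss of the DUX4 reporter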
DUX4 inh control = also measured in DUX4 inh; calls as there; activity change, negative = inhibition, %; measured here: Italica tet-on control reporter;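 0 = neutral control and -100 = positive control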
* hit, by the source's call; ? = inconclusive; nt = no result given; & = joins results of further samples. An excerpt (hit frequency here may not be typical).

nr	SMILES	DUX4 inh control	DUX4 inh	DUX4 inh difference
1	CC(=O)N1C[C@H]2[C@@H](c3ccccc31)[C@H](CO)N2C(=O)CC1CC1	1.3	3	2
2	CCCC#Cc1ccc([C@@H]2[C@H]3CN(CC4CCOCC4)CCCCN3[C@H]2CO)cc1	17	4	-13
3	COc1ccccc1CNC(=O)C[C@H]1C[C@@H]2c3cc(NC(=O)Nc4ccccc4F)ccc3O[C@@H]2[C@@H](CO)O1	1.8	-6	-8
4	COc1ccccc1NC(=O)N1CC(=O)N2[C@H](CO)[C@H](c3ccc(C#CC(C)C)cc3)[C@@H]2C1	-1.0	0	1
5	CN(C)CC#Cc1ccc([C@H]2[C@H](CO)N3C(=O)CN(C(=O)c4cccnc4)C[C@@H]23)cc1	6.2	27	21
6	COc1cccc(C(=O)Nc2ccc3c(c2)C(=O)N(C)[C@H]2CC[C@@H](CC(=O)N[C@H](C)c4ccccc4)O[C@@H]2CO3)c1	4.9	5	0
7	COC(=O)C[C@@H]1C[C@H]2c3cc(NC(=O)NC4CCCCC4)ccc3O[C@H]2[C@@H](CO)O1	-1.1	6	7
8	Cc1noc(C)c1NC(=O)Nc1cccc2c1O[C@@H](CN(C)Cc1ccc(C(=O)Nc3ccccc3N)cc1)[C@H](C)CN([C@@H](C)CO)C2=O	3.2	2	-1
9	O=C(c1cccnc1)N1C[C@H]2[C@@H](c3ccccc31)[C@@H](CO)N2C(=O)C1CCCC1	1.9	0	-2
10	Cc1ccccc1-c1ccc(C2[C@H]3CNC[C@@H]2N3S(=O)(=O)c2cn(C)cn2)cc1 (stereo partly specified)	11&0.2	8&-1	-3&-1
11	CN1[C@@H]2c3ccc(-c4ccccc4)c(=O)n3C[C@H]1[C@H](CO)[C@H]2C(=O)N1CCC(Cc2ccccc2)CC1	-5.5	-6	0
12	Cc1ccccc1S(=O)(=O)N1[C@@H]2CNC[C@H]1C2c1ccc(-c2cccc(C#N)c2)cc1 (stereo partly specified)	-14&-15	-8&9	5&25
13	CN(C)CCCNC(=O)[C@@H]1[C@@H](CO)[C@@H]2Cn3c(ccc(-c4cccnc4)c3=O)[C@H]1N2C(=O)CC1CC1	0.0	4	4
14	CN1c2ccc(C3=CCCCC3)cc2[C@@H]2[C@@H](CCN2C(=O)NC2CCCC2)[C@H]1CO	1.7	6	4
15	CNC[C@@H]1OCc2ccccc2-c2ccccc2C(=O)N([C@@H](C)CO)C[C@@H]1C	-8.5	-2	6
16	CC(C)CC#Cc1ccc([C@@H]2[C@@H](CO)N3C(=O)CN(C(=O)Nc4ccc(F)cc4)C[C@H]23)cc1	-14	-7	7
17	CC(=O)NC[C@H]1[C@@H](c2ccc(-c3cccnc3)cc2)[C@H](CO)N1C(=O)C1CC1	-2.6	2	4
18	COc1ccc2c3c(n(C)c2c1)[C@@H](CO)N(C(=O)Nc1ccc(F)cc1)CC31CN(Cc2cccc(F)c2)C1	nt	?	nt
19	COc1ccccc1-c1ccccc1[C@H]1[C@@H](C#N)N(C(=O)C2CC2)[C@H]1CO	-0.2	11	11
20	CC(C)NC(=O)N(C)C[C@@H]1Oc2ncc(-c3ccccc3F)cc2C(=O)N([C@@H](C)CO)C[C@@H]1C	-1.3	-1	0
21	COc1ccc(NC(=O)N2C[C@H](O)COC[C@@H]3O[C@@H](CC(=O)NCc4ccccc4OC)CC[C@H]32)cc1	3.0	3	0
22	CC(=O)N1CC2(C1)[C@H](c1ccc(-c3cccc(F)c3)cc1)[C@@H](CO)N2CC1CCOCC1	-3.0	-6	-3
23	CN(C)CCCNC(=O)C[C@H]1CC[C@H](NS(=O)(=O)c2ccccc2)[C@@H](CO)O1	1.0	5	4
24	CCCC#Cc1ccc([C@H]2[C@@H](CO)N3C(=O)CN(C(=O)Cc4cccnc4)C[C@H]23)cc1	11	20	8
25	C[C@@H]1CCCCO[C@@H](CN(C)Cc2ccc3c(c2)OCO3)[C@@H](C)CN([C@@H](C)CO)C(=O)c2cc(NS(=O)(=O)c3cn(C)cn3)ccc2O1	-5.5	-8	-2
26	O=C(c1cccnc1)N1CC2(C1)[C@H](c1ccccc1)[C@@H](CO)N2C(=O)CC1CC1	2.6	0	-2
27	CN(C[C@H]1[C@H](c2ccccc2)[C@@H](CO)N1CC1CC1)C(=O)c1ccc(F)cc1	-2.2	-4	-2
28	CCN1[C@H](C(=O)N2CCN(C)CC2)[C@@H](CO)[C@@H]2Cn3c(ccc(-c4ccccc4)c3=O)[C@@H]21	-3.7	0	4
29	N#Cc1ccc(-c2ccc([C@@H]3[C@H]4CN(C(=O)Nc5ccc(F)cc5)CCCCN4[C@H]3CO)cc2)cc1	nt	?	nt
30	N#C[C@H]1[C@@H](c2ccc(-c3cccnc3)cc2)[C@H](CO)N1C(=O)C1CC1	-1.5	-1	0
31	CN(C)CC#Cc1ccc([C@@H]2[C@@H](CO)N3C(=O)CN(C(=O)c4cccnc4)C[C@@H]23)cc1	9.0	19	10
32	CO[C@H]1CN(C)C(=O)c2cc(NC(=O)c3ccc4c(c3)OCO4)ccc2OC[C@@H](C)N(CC2CC2)C[C@H]1C	2.7	1	-2
33	COc1ccc2c3c(n(C)c2c1)[C@@H](CO)N(C(=O)C1CCCC1)CC31CCN(C(=O)CC2CC2)CC1	-6.1	11	17
34	O=C(NCCc1ccccc1)[C@@H]1[C@@H](CO)[C@@H]2Cn3c(cccc3=O)[C@H]1N2C(=O)C1CCCC1	4.9	2	-3
35	O=C(c1ccccn1)N1CC2(C1)[C@@H](c1ccccc1)[C@@H](CO)N2C(=O)CC1CC1	7.8	8	0
36	CCCC(=O)Nc1ccc2c(c1)C(=O)N(C)[C@@H]1CC[C@@H](CC(=O)NCCc3ccncc3)O[C@@H]1CO2	-0.9	1	2
37	O=C(C[C@@H]1CC[C@H]2[C@@H](COC[C@H](O)CN2CCC(F)(F)F)O1)NCC1CC1	-2.2	5	7
38	CN1CCN(C(=O)C[C@H]2CC[C@H]3[C@@H](COC[C@@H](O)CN3C(=O)Nc3ccc(Cl)cc3)O2)CC1	8.5	6	-3
39	COCC(=O)Nc1ccc2c(c1)[C@H]1C[C@H](CC(=O)NCCc3ccccc3)O[C@H](CO)[C@H]1O2	1.2	11	10
40	CCNC(=O)C[C@@H]1CC[C@H]2[C@@H](COC[C@@H](O)CN2Cc2ccccc2F)O1	2.8	2	-1
41	O=S(=O)(c1ccc(F)cc1)N1CCCCN2[C@H](C1)[C@H](c1ccc(-c3cncnc3)cc1)[C@@H]2CO	20	2	-18
42	COCC(=O)Nc1ccc2c(c1)C(=O)N(C)[C@@H]1CC[C@@H](CC(=O)N3CCc4ccccc4C3)O[C@H]1CO2	2.4	1	-2
43	CCCC#Cc1ccc([C@@H]2[C@H]3CN(S(C)(=O)=O)CCCCN3[C@H]2CO)cc1	20	13	-7
44	CS(=O)(=O)N1[C@@H](C#N)[C@@H](c2ccccc2-c2ccc(F)cc2)[C@@H]1CO	12	13	1
45	CCS(=O)(=O)NC[C@H]1[C@@H](c2ccccc2)[C@@H](CO)N1CC1CCCCC1	3.9	2	-2
46	CCCNC(=O)N1C[C@@H](C)[C@@H](OC)CN(C)C(=O)c2cc(NC(C)=O)ccc2OC[C@@H]1C	5.2	3	-2
47	O=C(C[C@H]1CC[C@H]2[C@@H](COC[C@@H](O)CN2C(=O)c2ccccc2)O1)N1CCc2ccccc2C1	5.4	14	9
48	C[C@H](CO)N1C[C@H](C)[C@@H](CN(C)S(C)(=O)=O)OCc2cn(nn2)CCCC1=O	2.5	3	0
49	CN(C)C(=O)c1ccc(-c2ccc([C@H]3[C@@H](CO)N4CCCCN(C(=O)C5CC5)C[C@@H]34)cc2)cc1	11	13	1
50	CCCNC(=O)[C@@H]1N[C@@H]2c3ccc(C4=CCCCC4)c(=O)n3C[C@@H]2[C@H]1CO	8.4	9	1
51	O=C([C@@H]1[C@@H](CO)[C@@H]2Cn3c(ccc(-c4ccncc4)c3=O)[C@@H]2N1CCC(F)(F)F)N1CCCCC1	-0.6	-1	0
52	C[C@H](CO)N1C[C@H](C)[C@H](CN(C)C)OCc2ccccc2-c2ccccc2C1=O	6.4	10	4
53	C[C@@H]1CN([C@H](C)CO)C(=O)c2cc(-c3cccc(C(=O)N(C)C)c3)cnc2O[C@@H]1CN(C)CC1CC1	3.6	0	-4
54	O=C(C[C@@H]1C[C@@H]2c3cc(NC(=O)Nc4ccc(C(F)(F)F)cc4)ccc3O[C@@H]2[C@@H](CO)O1)NCc1ccccn1	-0.5	-2	-1
55	C[C@@H]1CCCCO[C@H](CN(C)C(=O)Nc2cccc3ccccc23)[C@H](C)CN([C@H](C)CO)C(=O)c2cc(NS(=O)(=O)c3cn(C)cn3)ccc2O1	-0.4	3	4
56	COc1ccc(CN2CC3(CN(C(=O)C4CCC4)C3)c3c(n(C)c4cc(OC)ccc34)[C@@H]2CO)cc1	5.8	-8	-14
57	CCCC#Cc1ccc([C@H]2[C@H]3CN(C(=O)NC4CCCC4)CC(=O)N3[C@H]2CO)cc1	-0.1	7	7
58	CO[C@@H]1CN(C)C(=O)c2ccc(NC(=O)c3cnccn3)cc2OC[C@@H](C)N(CC2CC2)C[C@H]1C	2.7	4	2
59	Cc1noc(C)c1S(=O)(=O)Nc1ccc2c(c1)C(=O)N([C@@H](C)CO)C[C@@H](C)[C@H](CN(C)S(=O)(=O)c1ccc(F)cc1)OCCCC[C@H](C)O2	-4.2	-1	3
60	N#C[C@H]1[C@H](c2ccc(C#Cc3ccccc3F)cc2)[C@H](CO)N1C(=O)C1CCC1	nt	?	nt

Next section:
nr	SMILES	DUX4 inh control	DUX4 inh	DUX4 inh difference
61	CC(C)C#Cc1ccc2c(c1)O[C@H](CN(C)C(=O)c1ccncc1)[C@@H](C)CN([C@@H](C)CO)S2(=O)=O	-5.6	-3	3
62	CN(C)Cc1cn(CC[C@@H]2CC[C@H](NC(=O)Nc3ccc4c(c3)OCO4)[C@H](CO)O2)nn1	2.4	1	-1
63	CC=Cc1ccc2n(c1=O)C[C@@H]1[C@@H](CO)[C@H](C(=O)N3CCc4ccccc4C3)N[C@H]21 (mixture of isomers)	-2.8	-4	-1
64	C[C@@H]1CN([C@@H](C)CO)C(=O)c2ccccc2-c2ccccc2CO[C@@H]1CN(C)C(=O)c1cc(Cl)cc(Cl)c1	-5.6	7	12
65	Cc1ccc(S(=O)(=O)N2CC[C@H]3[C@@H](CO)N(C)c4ccc(C#Cc5cccnc5)cc4[C@H]32)cc1	-2.4	-2	1
66	CCC(=O)N1C[C@@H](O)COC[C@@H]2O[C@@H](CC(=O)N3CCCCC3)CC[C@H]21	4.2	6	2
67	CCC(=O)N1[C@@H]2c3ccc(-c4ccccc4)c(=O)n3C[C@@H]2[C@@H](CO)[C@@H]1C(=O)N1CCCCC1	2.4	4	1
68	O=C(C[C@@H]1CC[C@@H]2[C@H](COC[C@H](O)CN2C(=O)Nc2ccc(F)cc2)O1)NC1CCC1	10	2	-8
69	COCC(=O)N1C[C@@H]2[C@H](c3ccccc31)[C@H](CO)N2C(=O)c1ccccc1F	1.9	1	-1
70	COc1ccc(S(=O)(=O)N2CC[C@@H]3[C@H]2c2cc(C#Cc4cccnc4)ccc2N[C@@H]3CO)cc1	-1.0	1	2
71	O=C(C[C@H]1CC[C@H](NC(=O)c2cccnc2)[C@@H](CO)O1)NCc1ccc(Cl)c(Cl)c1	-10	-4	6

Gathered by group: the entries above containing an aryl methoxy group (9)
nr	SMILES	DUX4 inh control	DUX4 inh	DUX4 inh difference
3	COc1ccccc1CNC(=O)C[C@H]1C[C@@H]2c3cc(NC(=O)Nc4ccccc4F)ccc3O[C@@H]2[C@@H](CO)O1	1.8	-6	-8
4	COc1ccccc1NC(=O)N1CC(=O)N2[C@H](CO)[C@H](c3ccc(C#CC(C)C)cc3)[C@@H]2C1	-1.0	0	1
6	COc1cccc(C(=O)Nc2ccc3c(c2)C(=O)N(C)[C@H]2CC[C@@H](CC(=O)N[C@H](C)c4ccccc4)O[C@@H]2CO3)c1	4.9	5	0
18	COc1ccc2c3c(n(C)c2c1)[C@@H](CO)N(C(=O)Nc1ccc(F)cc1)CC31CN(Cc2cccc(F)c2)C1	nt	?	nt
19	COc1ccccc1-c1ccccc1[C@H]1[C@@H](C#N)N(C(=O)C2CC2)[C@H]1CO	-0.2	11	11
21	COc1ccc(NC(=O)N2C[C@H](O)COC[C@@H]3O[C@@H](CC(=O)NCc4ccccc4OC)CC[C@H]32)cc1	3.0	3	0
33	COc1ccc2c3c(n(C)c2c1)[C@@H](CO)N(C(=O)C1CCCC1)CC31CCN(C(=O)CC2CC2)CC1	-6.1	11	17
56	COc1ccc(CN2CC3(CN(C(=O)C4CCC4)C3)c3c(n(C)c4cc(OC)ccc34)[C@@H]2CO)cc1	5.8	-8	-14
70	COc1ccc(S(=O)(=O)N2CC[C@@H]3[C@H]2c2cc(C#Cc4cccnc4)ccc2N[C@@H]3CO)cc1	-1.0	1	2

Screens (PubChem)
